# Source: PubChem BioAssay
# E coli growth = blocks Escherichia coli growth | OD600, 23 h; hits give low values | 330,000 tested, 0.21% active | OD600 absorbance (no concentration beside the values);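 active means OD600 absorbance below the run mean of sample wells minus 3.6 SD, in any replicate, cut at about 0.56 in these data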;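 further: stock transfer was 300 nL into about 60 µL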
# HNF4A DNA FP = change in binding of human HNF4 alpha to DNA. activity change, % at 10 µM. HNF4a-FITC DNA binding, fluorescence polarization, 1 h. AID 1224865. P41235. 360,000 tested, 0.3% active; in the data active means activity change above about 30%, passing the limit was not always enough;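 further: controls were the assay level and a saturating level of protein; the project sought stronger binding though the title names inhibitors; some compounds called inactive have numbers as strong as hits; positive values seem to mean higher polarization but the record does not say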
# B2AR ag = agonists of human beta-2 adrenergic receptor inducing internalization; AID 504454; Am2.2-beta2AR cells, FAP receptor internalization, flow cytometry; reference of the scale not given here; P07550; 340,000 tested, 0.43% active; response, % (concentration not given with the values);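 active means response above a set limit, near 3 SD of response in nonfluorescent compounds, cut at about 42% in these data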;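 further: stock transfer was 100 nL into about 11 µL; a reference agonist was the positive control; negative values mostly stem from fluorescent compounds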
# UCH37 inh = inhibitors of human deubiquitinating enzyme UCH37. Q9Y5K5. purified proteasome/UCH37, Ub-AMC cleavage fluorescence. inhibition, % (no concentration beside the values). 330,000 tested, 0.33% active;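 active means mean of two replicates above 20%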;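 further: 0% = compound-free wells with enzyme and 100% = wells lacking proteasome; stock transfer was 100 nL into about 20 µL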
# Target sequence (Q9Y5K5 whole entry, looked up): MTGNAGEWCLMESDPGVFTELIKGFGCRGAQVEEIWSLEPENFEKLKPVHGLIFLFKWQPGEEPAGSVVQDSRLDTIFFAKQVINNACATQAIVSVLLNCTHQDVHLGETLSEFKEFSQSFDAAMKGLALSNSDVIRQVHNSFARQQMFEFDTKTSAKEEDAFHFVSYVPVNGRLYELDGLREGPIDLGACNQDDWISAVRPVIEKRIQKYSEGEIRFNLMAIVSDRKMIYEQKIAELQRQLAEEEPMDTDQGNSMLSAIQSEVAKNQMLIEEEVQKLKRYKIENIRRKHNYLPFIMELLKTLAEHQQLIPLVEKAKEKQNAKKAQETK
#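 Material: Human UCH37 enzyme supplied as purified proteasome complex | Schedule: 30 min compound-proteasome preincubation then 25 min substrate reaction, room temperature | Detection: AMC fluorescence from Ub-AMC cleavage, excitation 355 nm, emission 460 nm | Benchmarks: Wells without proteasome as full block, compound-free enzyme plus substrate as uninhibited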
# Ecoli rRNA inh = inhibitors of bacterial rRNA selective over humanized ribosomes | E. coli WT GFP vs humanized-ribosome RFP mutants, fluorescence, 24 h; hits give low values; DMSO median 0, no signal -100 | GFP signal change (wild-type ribosome), % (no concentration beside the values) | 350,000 tested, 1.6% active | AID 720706;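 active means significant combined selectivity score with lowered wild-type GFP, culture density cut under 30%, mutant RFP and density less affected; inactive means any of these conditions unmet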; further: one replicate is shown; some compounds called inactive have numbers as strong as hits
# FGF22 binding = binders of recombinant human FGF22 by thermal shift | Q9HCT0 | SYPRO orange fluorescence; percent of sucrose octasulfate shift, DMSO zero | calls only at 9.99 µM | 340,000 tested, 1.5% active | AID 651658;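 active means melting point raised past a set limit in the mean and every replicate; three in four hits are not shown here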
# Target sequence (Q9HCT0 whole entry, looked up): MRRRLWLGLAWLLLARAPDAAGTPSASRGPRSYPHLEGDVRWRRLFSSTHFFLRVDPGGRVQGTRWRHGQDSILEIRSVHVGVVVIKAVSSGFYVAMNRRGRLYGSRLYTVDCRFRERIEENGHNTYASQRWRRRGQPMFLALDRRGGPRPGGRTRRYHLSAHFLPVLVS
# ALR inh = human ALR oxidase inhibition via reduced H2O2. P55789. purified ALR, DTT oxidation, H2O2 HRP-luminol luminescence. inhibition, % (concentration not given with the values). 290,000 tested, 3.8% active. AID 485317;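 active means mean and each replicate at 75% or more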;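 further: stock transfer was 7.5 nL into about 7.5 µL; 0% = neutral wells and 100% = wells with inactivated enzyme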
# Target sequence (P55789 whole entry, looked up): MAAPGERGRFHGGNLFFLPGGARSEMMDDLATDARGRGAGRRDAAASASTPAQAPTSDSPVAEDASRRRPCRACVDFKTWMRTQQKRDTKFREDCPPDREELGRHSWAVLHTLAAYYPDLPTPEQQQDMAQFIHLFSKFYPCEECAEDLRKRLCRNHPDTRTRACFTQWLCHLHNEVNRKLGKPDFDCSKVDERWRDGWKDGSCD
# Ecoli rRNA inh OD600 = recorded beside Ecoli rRNA inh, whose call it bears; OD600 change, %; measured here: OD600 growth;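 optical density of the mix in the first replicate; 0 = DMSO median and -100 = no signal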
# Ecoli rRNA inh RFP = second read-out of Ecoli rRNA inh, no call of its own (marks repeat the call); RFP signal change, %; measured here: RFP humanized mutant strains;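 first replicate; 0 = DMSO median and -100 = no signal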
# * = called active by the depositor; i = inactive; / = not tested or not shown. Only part of the results is shown, so the mix of outcomes need not match the whole.
SMILES,E coli growth,HNF4A DNA FP,B2AR ag,UCH37 inh,Ecoli rRNA inh,Ecoli rRNA inh OD600,Ecoli rRNA inh RFP,FGF22 binding,ALR inh
CCC(=O)c1cn(Cc2ccc(C#N)cc2)c2ccccc12,0.71,-1.3,-9,-0.8,/,/,/,/,/
CN1CCN(Cc2cn3cccnc3n2)CC1,0.66,2.6,4,-13,9,1,-1.6,/,/
CC(=O)c1cn(Cc2ccccc2F)c2ccccc12,0.66,-1.9,3,2.1,-4,-3,1.0,/,/
O=C1NCN(c2ccccc2)C12CCN(C(c1ccccc1)c1nnnn1-c1ccc3c(c1)OCCO3)CC2 (centres undefined),/,1.2,/,/,-10,-14,0.4,i,/
O=C(c1ccc2c(=O)n(Cc3ccc4c(c3)OCO4)c(=S)[nH]c2c1)N1CCC2(CC1)OCCO2,0.68,-4.3,-3,1.1,22,14,0.9,i,8
O=C(c1ccc(Cl)cc1)C1CCCN(Cc2ccc3c(c2)OCCO3)C1 (centres undefined),0.63,2.3,-5,2.0,-21,-27,-0.2,i,5
Cc1ccc2c(c1)C1CN(C)CCC1N2C(=O)COc1ccc(S(=O)(=O)N2CCOCC2)cc1 (centres undefined),0.69,2.1,2,1.5,8,6,0.7,i,-8
COC(=O)C1=C(c2ccccc2)C[C@@H]2CC[C@H]1N2C(=O)N1CCC(C)CC1,/,1.6,-3,4.2,-9,-16,0.7,i,18
Cc1cc(C)c(C(=O)N2CCC3(CC2)OCCO3)c(C)c1,0.66,0.3,-1,3.8,-2,-1,0.4,i,-2
COC(=O)C1=C(c2ccc(OC)c(OC)c2)C[C@@H]2CC[C@H]1N2C(=O)NCCOc1ccc(OC)cc1,/,-1.9,-2,16,5,7,-3.7,i,-4

# Five of the compounds above, with values under each structure.
# Every second line gives: E coli growth, HNF4A DNA FP, B2AR ag, UCH37 inh, Ecoli rRNA inh, Ecoli rRNA inh OD600, Ecoli rRNA inh RFP, FGF22 binding, ALR inh
- O=C1NCN(c2ccccc2)C12CCN(C(c1ccccc1)c1nnnn1-c1ccc3c(c1)OCCO3)CC2 (centres undefined)
    /, 1.2, /, /, -10, -14, 0.4, i, /
- O=C(c1ccc2c(=O)n(Cc3ccc4c(c3)OCO4)c(=S)[nH]c2c1)N1CCC2(CC1)OCCO2
    0.68, -4.3, -3, 1.1, 22, 14, 0.9, i, 8
- O=C(c1ccc(Cl)cc1)C1CCCN(Cc2ccc3c(c2)OCCO3)C1 (centres undefined)
    0.63, 2.3, -5, 2.0, -21, -27, -0.2, i, 5
- Cc1ccc2c(c1)C1CN(C)CCC1N2C(=O)COc1ccc(S(=O)(=O)N2CCOCC2)cc1 (centres undefined)
    0.69, 2.1, 2, 1.5, 8, 6, 0.7, i, -8
- COC(=O)C1=C(c2ccccc2)C[C@@H]2CC[C@H]1N2C(=O)N1CCC(C)CC1
    /, 1.6, -3, 4.2, -9, -16, 0.7, i, 18

# The results go on:
SMILES,E coli growth,HNF4A DNA FP,B2AR ag,UCH37 inh,Ecoli rRNA inh,Ecoli rRNA inh OD600,Ecoli rRNA inh RFP,FGF22 binding,ALR inh
O=C(c1ccccc1F)N1CCC2(CC1)OCCO2,0.7,1.8,2,2.9,13,4,2.4,i,1
Cc1cccc(C)c1-n1nnnc1C(c1cccs1)N1CCC(n2c(=O)[nH]c3ccccc32)CC1 (centres undefined),/,11,/,/,3,5,0.5,i,/
N#CC1(c2ccccc2)CCN(C2CC(=O)N(c3cccc(F)c3)C2=O)CC1 (centres undefined),0.67,3.3,-4,0.7,9,20,2.8,i,-1
C[N+]1(C)C2CC[C@H]1CC(OC(=O)C(CO)c1ccccc1)C2 (some centres undefined),/,0.0,-6,4.5,/,/,/,i,0
CCOC(=O)c1c(C)n(Cc2ccc3c(c2)OCO3)c2ccc(O)cc12,0.69,0.0,28,-0.2,/,/,/,/,-45
CCCCC(=O)N/N=C/c1c(O)n(CCC2=CCCCC2)c(=O)[nH]c1=O,0.65,0.7,-10,2.7,-18,-13,0.4,i,0
CSc1ccc(C(c2c(O)c3ccccc3oc2=O)c2c(C)n(C)n(-c3ccccc3)c2=O)cc1 (centres undefined),0.7,-0.6,-4,5.5,-1,2,-2.2,i,-2
CC(C)NCC(O)c1ccc(C2CCCC2)cc1 (centres undefined),0.64,3.9,-1,5.3,/,/,/,/,-10
CCOc1cccc(CNC2CN3CCC2CC3)c1 (centres undefined),0.64,-1.6,0,-0.1,17,12,-9.7,i,-3
CSCCC(c1nnnn1C1CCCC1)N1CCC(n2c(=O)[nH]c3ccccc32)CC1 (centres undefined),/,-1.8,/,/,-4,-2,-2.3,/,/

# Structures listed so far containing four or more nitrogen atoms:
SMILES,E coli growth,HNF4A DNA FP,B2AR ag,UCH37 inh,Ecoli rRNA inh,Ecoli rRNA inh OD600,Ecoli rRNA inh RFP,FGF22 binding,ALR inh
CN1CCN(Cc2cn3cccnc3n2)CC1,0.66,2.6,4,-13,9,1,-1.6,/,/
O=C1NCN(c2ccccc2)C12CCN(C(c1ccccc1)c1nnnn1-c1ccc3c(c1)OCCO3)CC2 (centres undefined),/,1.2,/,/,-10,-14,0.4,i,/
Cc1cccc(C)c1-n1nnnc1C(c1cccs1)N1CCC(n2c(=O)[nH]c3ccccc32)CC1 (centres undefined),/,11,/,/,3,5,0.5,i,/
CCCCC(=O)N/N=C/c1c(O)n(CCC2=CCCCC2)c(=O)[nH]c1=O,0.65,0.7,-10,2.7,-18,-13,0.4,i,0
CSCCC(c1nnnn1C1CCCC1)N1CCC(n2c(=O)[nH]c3ccccc32)CC1 (centres undefined),/,-1.8,/,/,-4,-2,-2.3,/,/

# (further entries)
SMILES,E coli growth,HNF4A DNA FP,B2AR ag,UCH37 inh,Ecoli rRNA inh,Ecoli rRNA inh OD600,Ecoli rRNA inh RFP,FGF22 binding,ALR inh
Clc1cccc(Cl)c1CN1CCN(c2ccccc2)CC1,0.66,-1.3,8,2.6,/,/,/,/,26
CC[C@@H]1c2ccccc2[C@@H]2CC[C@H]1N2c1ccccc1,/,1.1,/,/,-22,-22,-0.8,i,/
COc1ccc(N/N=C/c2c(O)n(-c3ccc(C)c(C)c3)c(=O)[nH]c2=O)cc1,0.69,-1.0,-3,3.5,/,/,/,/,99*
Cc1sc(-n2c(C)cc(C=C3C(=O)NC(=O)NC3=O)c2C)c(C#N)c1C,0.73,/,/,-42,/,/,/,i,3
O=C(c1cc2cc3ccc(Cl)cc3nc2o1)N1CCC2(CC1)OCCO2,0.73,3.9,-15,0.3,/,/,/,/,-2
CC1CCCCC1NC1CCN(C)CC1 (centres undefined),0.69,3.0,5,2.4,16,6,5.9,i,-5
Cc1ccc(C(C)C)c(OCC(=O)N2CCN(Cc3nc4cc([N+](=O)[O-])ccc4n3C)CC2)c1,0.69,-1.3,7,2.6,1,3,-0.9,i,-13
CCCC(C)CC1(CCO)C(=O)NC(=S)NC1=O (centres undefined),0.66,3.1,4,0.5,18,9,3.6,i,/
CCC(=O)O[C@@H]1[C@@H](OC(C)=O)[C@@]2(O)C(C[C@H](O)C2(C)C)[C@](C)(O)[C@H]2CC[C@@H]3[C@@H](O)[C@]12C[C@@]3(C)O (some centres undefined),/,-2.3,-3,3.8,12,4,4.5,i,-2
Nc1cc(Cl)cc(C(=O)O)c1Cl,0.64,3.7,-6,0.5,2,-2,0.6,i,-1
O=C1CCCN1c1ccc(S(=O)(=O)O)cc1 (tested in a mixture with another compound),0.66,-1.3,0,-0.1,18,0,-0.6,i,0
C1=CC(Cc2cncs2)c2ccccc21 (centres undefined),0.63,-4.0,6,-4.0,9,-4,1.4,i,-13
C=CCn1c(O)c(C(C)=Nc2ccc3c(c2)CCC3)c(=O)[nH]c1=O,0.65,4.3,-20,6.2,6,-4,2.2,i,-2
